# Screening data: PubChem, several laboratories
# Rce1 inh = yeast Rce1p protease inhibitors, primary screen, biochemical, fluorescence, cell-free homogeneous; CAAX prenyl protease 2 (Saccharomyces cerevisiae (strain ATCC 204508 / S288c)), Q03530; yeast membranes, quenched prenylated peptide cleavage fluorescence; calls only; 0.27% of 290,000 active; AID 2563, 2010;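 active means fall in fluorescence gain of 50% or more versus controls, with final raw signal at or below 3038400; inconclusive means same 50% fall but final raw signal above 3038400; inactive means fall in fluorescence gain under 50%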;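 further: plate controls were neutral control wells for no effect and wells lacking membranes for full effect; tested at 10 µM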
# Target sequence (Q03530 whole entry, looked up): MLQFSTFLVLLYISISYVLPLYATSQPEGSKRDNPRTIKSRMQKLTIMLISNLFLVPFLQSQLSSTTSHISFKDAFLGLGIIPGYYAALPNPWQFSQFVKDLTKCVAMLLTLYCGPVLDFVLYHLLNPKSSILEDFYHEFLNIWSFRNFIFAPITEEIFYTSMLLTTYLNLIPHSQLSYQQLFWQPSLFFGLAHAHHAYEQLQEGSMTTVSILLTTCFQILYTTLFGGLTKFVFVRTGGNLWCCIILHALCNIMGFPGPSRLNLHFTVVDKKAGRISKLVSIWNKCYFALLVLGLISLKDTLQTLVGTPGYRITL
# Yeast UUG start = modulators of yeast start codon fidelity, primary screen, whole organism, S. cerevisiae, single point, plate reader; S. cerevisiae UUG-firefly luciferase reporter, luminescence/redox ratio; activity score, % at 18.7 µM; 0.13% of 350,000 active; AID 602363, 2012;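 active means replicate mean at a twofold rise or more, about +100% in these data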;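 further: firefly luciferase made from a UUG start codon reports start codon fidelity; reporter light over untreated wells divided by growth signal over untreated wells; some hits fall short of that in this replicate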
# eIF4H FP inh = human eIF4H binding inhibitors, primary screen, translation initiation inhibitor project, biochemical, uHTS, fluorescence polarization; 0.94% of 290,000 active; Eukaryotic translation initiation factor 4H (Homo sapiens), Q15056; eIF4H fluorescence polarization binding assay; AID 2012, 2009; inhibition, % at 35 µM;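 active means 50% or more with normal probe brightness, or confirmed in later tests; inconclusive means above 50% with abnormal brightness, or retests that disagree; inactive means below 50% or failed in later tests; about a fifth of its hits are not listed in these tables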;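 further: calls also rest on retests at 20 µM and on dose response follow-up; 0% = protein and probe with vehicle and 100% = probe without protein; strong numbers were not always called active; many hits fall short of the cut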
# PABP FP inh = PABP poly(A) RNA binding inhibitors, primary screen, biochemical, fluorescence polarization, uHTS. Polyadenylate-binding protein 1 (Homo sapiens), P11940. inhibition, % at 35 µM. 1% of 290,000 active;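 active means 50% or more with normal probe brightness, or confirmed in later tests; inconclusive means above 50% with abnormal brightness, or retests that disagree; inactive means below 50% or failed in later tests; about a fifth of its hits are not listed in these tables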;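 further: calls also rest on retests at 20 µM and on dose response follow-up; controls were probe without protein and protein plus probe with vehicle; some compounds called inactive have numbers as strong as hits; many hits fall short of the cut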
# Env fusion inh = inhibitors of HIV-1 Env-driven cell-cell fusion, primary screen, HeLa-JRFL effector, CEM21 target cells, luciferase. inhibition, % at 12.3 µM. 1.1% of 360,000 active. AID 651610, 2012;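 active means mean replicate inhibition score of at least 50 and every replicate individually at or above 50; inconclusive means only one of the two criteria met; inactive means mean below 50 and not all replicates reaching 50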;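 further: 0% = plate neutral controls and 100% = maraviroc near 300 nM; one replicate is shown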
# MT1-MMP act inh = blockers of MT1-MMP proenzyme processing, primary screen, HT1080 RFP-PRO-GFP cells, GFP/RFP fluorescence; Matrix metalloproteinase-14 (Homo sapiens), P50281; GFP/RFP ratio fluorescence, overnight; percent of plate control window, DMSO zero; GFP/RFP ratio change, % at 20 µM; 0.061% of 360,000 active;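 active means GFP/RFP ratio change of at least 30% with cell ATP level not reduced by more than half and red fluorescence within 50% of control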; further: strong numbers were not always called active
#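 Assay system: HT1080 RFP-PRO-GFP cells | Dosing: 20 µM single dose, 1% DMSO | Incubation: Cells overnight before dosing, compound overnight, 37 °C, 5% CO2 | Evaluation: GFP/RFP fluorescence ratio | Control set: DMSO-only wells and HT1080 RFP-L50D-GFP cell wells as references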
# CSC inhib = cancer stem cell viability inhibitors, primary screen, luminescence | cancer stem cell-like cells viability | inhibition, % at 7.5 µM | 1.1% of 300,000 active;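 active means mean at 75% or more and at least half the replicates too; inconclusive means mean and replicates disagree; tested in HMLE shEcad cells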;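 further: 0% = median of negative and 100% = median of positive control wells; the first replicate is given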
# MT1-MMP act inh RFP = also measured in MT1-MMP act inh; calls as there; RFP signal change, %; measured here: RFP expression control read;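 0 = vehicle wells; hits needed this value within 50% of zero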
# * = called active by the depositor; i = inactive; u = inconclusive; x = no result given; & = joins results of further samples; [ ] = remark or other dose.
SMILES,Rce1 inh,Yeast UUG start,eIF4H FP inh,PABP FP inh,Env fusion inh,MT1-MMP act inh,MT1-MMP act inh RFP,CSC inhib
CCc1ccc(/C(C)=N\Nc2ccc([N+](=O)[O-])cc2)cc1,x,-17,-19,-14,-22,-31,1,4
O=C(OCC(=O)N(Cc1ccccc1)Cc1ccccc1)c1cccc(O)c1,x,5,x,x,x,1,1,-11
Nc1nc(C2CCCN2S(=O)(=O)c2ccc(Cl)cc2)cs1 (centres undefined),i,-12,4,11,x,-6,-4,-2
CC(=O)N1CCc2cc(C(=O)CN3CCCN(Cc4ccc(F)cc4)C3)ccc21,i,x,1,4,x,x,x,-21
CC(C)c1ccc(C(CC(=O)c2ccc(Cl)cc2)C(=O)O)cc1 (centres undefined),i,x,0,7,-2,0,15,-3
O=C(NCCc1c[nH]c2ccccc12)c1cc([N+](=O)[O-])cc([N+](=O)[O-])c1,i,9,-11,-1,-13,5,4,2
Cc1sc2nc(-c3ccccn3)[nH]c(=O)c2c1-c1ccccc1,i,-37,9,-6,5,-4,-11,21
Cc1cc(NC(=O)c2cc(-c3ccc4c(c3)OCO4)on2)n(-c2ccccc2)n1,i,-9,-11,-6,11,-2,-1,-8
Cc1cc(C(F)(F)F)nc(-n2cc(-c3cccc(N)c3)nn2)n1,i,x,-7,10,-12,0,3,-3
COc1cccc(Nc2nc(C(N)Cc3ccc(F)cc3)cs2)n1 (centres undefined),x,-9,x,x,6,-10,-2,x
CC(=O)Oc1ccc(C(=O)Nc2ccc3c(c2)C(=O)N(CCC(=O)O)C3=O)cc1,i,-6,8,-6,-64,-4,1,-9
Cc1ccccc1OCCn1c(S(=O)(=O)O)nc2c(N)ncnc21,i,4,-8,2,-3,3,-1,-8
CC(C)C(OC(=O)c1ccccc1)c1nccc2ccccc12 (centres undefined),i,1,7,0,-36,0,-4,2
CCCc1cc(=O)oc2c(C)c(OCC(=O)NC3CCN(Cc4ccccc4)CC3)ccc12,i,-16,-9,6,5,5,1,-5
COc1ccc(C2SCC(C(=O)O)N2C(C)=O)cc1OC (centres undefined),i,-6,-1,14,-5,-1,4,14
COCCCn1c(=O)c2ccccc2n(Cc2cccc(C)c2)c1=O,i,10,2,-12,23,-1,-2,-15
Cc1[nH]n(-c2ccccc2)c(=O)c1/C=N/N1C(=O)c2ccc3c4c(ccc(c24)C1=O)CC3,i,-21,28,0,-20,0,-4,4
Cn1cnnc1SCC(=O)Nc1ccccc1Sc1ccccc1,i,-16,1,-4,x,4,0,-5
Cc1cccn2c(=O)c(/C=C3\SC(=S)NC3=O)c(NCCCN3CCOCC3)nc12,i,-8,u,25,15,-54,16,36
CCOc1ccc(/C=C2\SC(=S)N(CCC(=O)O)C2=O)cc1,i,x,-12,8,u,-3,-3,-3
CCN(CC(=O)Nc1c(Cl)cccc1Cl)C(=O)C1CCN(c2ncnc3sc(C)c(C)c23)CC1,x,-2,x,x,10,-1,-2,x
CN(c1ccccc1)S(=O)(=O)c1cccc(C(=O)Nc2nccs2)c1,i,x,0,-9,12,1,-5,-1
Cc1cccn2c(=O)c3cc(C#N)c(=N)n(Cc4ccncc4)c3nc12,i,x,2,-2,x,x,x,-2
C=CCn1c(C)nnc1SCC(=O)Nc1nccs1,i,-12,2,4,-1,0,1,-5
Cc1cc(OC(=O)CNC(=O)OC(C)(C)C)c2c(C)cc(=O)oc2c1,i,-8,-1,7,14,0,5,-8
O=c1[nH]c(-c2ccccc2)nnc1-c1ccccc1,i,-20,-6,-12,-32,-3,1,8
O=[N+]([O-])c1cccc(-c2nnc3n2CCCCC3)c1,i,x,-15,0,12,1,2,-8
CCCc1n(CC(O)COCc2ccccc2)c2ccccc2[n+]1C (centres undefined),i,x,2,0,-6,-5,-4,-10
O=C(Nc1sc2c(c1C(=O)O)CCCCC2)c1ccccc1F,i,x,3,12,13,-6,-3,23
CC12CCC(=O)N1C(C(=O)NNC(=O)c1ccccc1F)CS2 (centres undefined),x,-7,x,x,-4,2,3,-13
Cc1ccc(C(c2sc3nc(C)nn3c2O)N2CCOCC2)cc1 (centres undefined),i,-13,-9,-5,-99,0,1,7
CC(C)(C)c1ccc(/C=C/C(=O)NCCCn2ccnc2)cc1,i,-23,-6,-1,-3,1,-3,-11
O=C(CCCN1C(=O)/C(=C/c2cccs2)SC1=S)Nc1ccc(O)cc1,i,-4,0,-6,12,8,2,x
O=C(COC(=O)c1ccccc1C(=O)c1ccc(Cl)c([N+](=O)[O-])c1)NC1CC1,i,-8,-7,0,-69,-27,-27,25
Cc1ccc2[nH]c(=O)c(C(c3nnnn3CC3CCCO3)N3CCc4ccccc4C3)cc2c1 (centres undefined),i,-2,-3,24,-84,-3,3,-1
Cc1c(Cl)c([N+](=O)[O-])nn1CC(=O)Nc1c(C)n(C)n(-c2ccccc2)c1=O,i,6,6,9,x,2,3,-9
COc1ccc(C(c2nnnn2Cc2ccccc2)N2CCN(C/C=C/c3ccccc3)CC2)cc1 (centres undefined),x,4,x,x,-16,1,-3,x
O=[N+]([O-])c1ccc(/C=N/Nc2ccccn2)cc1,i,-4,26,-2,-45,x,x,-2
Cc1onc(-c2c(Cl)cccc2Cl)c1C(=O)NCCc1ccncc1,i,-18,2,-1,-3,-3,3,14
CC(C)CCNC(=O)CN(CCN1CCOCC1)C(=O)Cn1nnc(-c2ccc(F)cc2)n1,i,-6,7,7,-2,3,5,3
COc1ccc(Nc2nc(N)nc(CSCCO)n2)cc1,i,-22,-3,0,x,-4,0,-1
CCC(=O)NC(=S)Nc1ccc(S(=O)(=O)N2CCN(C)CC2)cc1,i,x,-4,-9,-4,-2,0,7
COc1ccccc1N1CCN(C(=O)CSc2nnc(NC(=O)C3CCC3)s2)CC1,i,-9,-6,-6,7,-1,2,-5
Cc1ccsc1-c1nc(C(N)=O)c2[nH]c(=O)n(-c3ccc(Cl)cc3)c2n1,i,-18,20,6,15,-7,0,1
O=C(Cn1cncn1)c1ccccc1Br,i,-9,-3,3,-3,0,4,-7
CCOC(=O)c1ccc(NC(=O)C2CCN(C(=O)c3ccc(OC)c(OC)c3)CC2)cc1,i,32,0,1,x,4,-22,-13
NC(=O)CSc1nnc(Cn2c(=O)sc3ccccc32)n1-c1ccccc1,i,-13,2,2,-14,-3,2,-16
CC(C)c1ccc(/C=N/n2c(-c3ccccc3)n[nH]c2=S)cc1,i,-13,8,-5,10,2,-1,7

# 2 successive entries from above, quoted:
SMILES,Rce1 inh,Yeast UUG start,eIF4H FP inh,PABP FP inh,Env fusion inh,MT1-MMP act inh,MT1-MMP act inh RFP,CSC inhib
NC(=O)CSc1nnc(Cn2c(=O)sc3ccccc32)n1-c1ccccc1,i,-13,2,2,-14,-3,2,-16
CC(C)c1ccc(/C=N/n2c(-c3ccccc3)n[nH]c2=S)cc1,i,-13,8,-5,10,2,-1,7

# The results go on.
SMILES,Rce1 inh,Yeast UUG start,eIF4H FP inh,PABP FP inh,Env fusion inh,MT1-MMP act inh,MT1-MMP act inh RFP,CSC inhib
COc1ccc(-c2cc(C#N)nc(N3CCN(C)CC3)n2)cc1,i,x,-4,-14,-43,-5,-2,3
Cc1ccc(C2CC(=O)NC(SCC(=O)Nc3nccs3)=C2C#N)cc1 (centres undefined),i,-11,-14,-4,x,-9,6,10
O=C(O)c1cccc(Nc2c([N+](=O)[O-])c(=O)oc3ccccc23)c1,i,-21,-5,-1,-10,10,8,-3
CC(=O)c1ccc(N2CCN(C(=S)Nc3ccccc3)CC2)cc1,i,x,-1,2,-11,-3,-3,-10
C[C@@H]1CN([C@H](C)CO)C(=O)CCCn2nncc2CO[C@@H]1CN(C)S(=O)(=O)c1ccc2ccccc2c1,x,8&4,x,x,12,2,1,x
O=C(N/N=C\c1ccccc1)c1ccccc1-n1cccc1,i,x,5,3,-5,-7,-2,-4
COc1cc(C2N(c3ccc(Cl)cc3)C(=O)C3CCCN32)cc(OC)c1OC (centres undefined),i,14,-2,-4,18,-2,3,9
COc1ccccc1N1CCN(C(=O)c2cc(C3CC3)on2)CC1,i,-6,9,-20,8,0,5,-6
O=C(C1CCCO1)N1CCN(c2c3c(nc4cc(-c5ccc(F)cc5)nn24)CCC3)CC1 (centres undefined),i,-10,-4,1,x,5,-3,6
Cc1ccccc1-c1nc(CN2CCC(C(=O)NCCCN3CCOCC3)CC2)c(C)o1,i,-10,-5,6,-14,7,3,x
COc1cccc(C(C(=O)NC2CCCC2)N(CC2CCCO2)C(=O)Cc2cccs2)c1 (centres undefined),i,x,5,4,12,-4,-8,-10
CC(=O)CCc1c(C)nc2ccc(C(=O)O)cc2c1Cl,i,x,44,-5,x,-4,1,x
Cc1nnsc1C(=O)N/N=C/c1cccc(C(F)(F)F)c1,i,x,3,-2,-34,0,-4,-4
COc1ccc(C(=O)NCC(O)CN2CCOCC2)cc1[N+](=O)[O-] (centres undefined),i,-18,-16,-1,0,-2,3,-9
COc1ccc(C(=O)Nc2cccc(NC(=O)c3ccc(OC)c(OC)c3)n2)cc1OC,i,-4,-4,-5,16,-9,1,20
O=C1CC(C(=O)O)c2ccccc2N1 (centres undefined),i,-18,-6,-5,-2,-1,-3,-14
Cc1ccc(C2CC(c3ccc(C)cc3)n3nc(N)nc3N2)cc1 (centres undefined),i,2,-3,-3,-23,5,3,x
O=C(Cc1ccc(Cl)cc1)Nc1ccc(SC(F)F)cc1,i,1,4,-2,-15,-6,-5,34
CCC12CN3CC(CC)(CN(C1)C3c1ccc(OC(C)C)cc1)C2=O (centres undefined),i,5,1,2,-36,-2,0,-10
Cc1ccc2oc(-c3ccc(NC(=O)c4ccncc4)cc3O)nc2c1,i,x,-19,-36,-19,0,2,1
Cc1ccc(C(=O)NNC(=O)C2CCN(c3nccc(C)n3)CC2)cc1,i,-9,-4,-6,x,2,4,-11
COc1cc(OC)cc(C(=O)N[C@H](C(=O)OCC(=O)Nc2ccc(OC)c(OC)c2)C(C)C)c1,i,x,-8,1,-10,-2,2,-6
O=C(c1cc(-c2cccs2)nn1-c1ccccc1)N1CCN(S(=O)(=O)c2ccccc2)CC1,i,-11,x,x,-34,-8,-2,53
COc1ccc(-c2nnc(SCC(=O)N/N=C/c3ccccc3C(=O)O)n2-c2ccc(Cl)cc2)cc1,i,x,3,15,7,-2,0,6
O=C(Nc1nnc2n1CCS2)c1ccco1,i,-8,14,2,-18,-1,2,-9
Cc1ccc2c(c1)C(c1ccccc1)N(C(=O)c1ccccc1[N+](=O)[O-])CC(=O)N2 (centres undefined),i,-8,0,-1,50,-1,-6,-12
Cc1noc(C)c1NC(=O)N(C)C[C@H]1Oc2ccc(NC(=O)Cc3ccccc3)cc2C(=O)N([C@H](C)CO)C[C@@H]1C,x,-30,x,x,5[16.7 µM],1,4,-14
COc1ccc(S(=O)(=O)NCc2ccccc2)cc1,i,1,-11,4,1,2,0,3
CC(C)COc1ccc2[nH]c3c(c2c1)CCCC3=O,i,-9,-2,0,x,6,2,x
COc1ccc(/C(C)=N/NC(=S)NCc2ccco2)cc1,i,x,-8,7,4,1,-3,2
CCCn1c(CN2CCN(C(=O)OCC)CC2)nc2cc(NC(=O)CC)ccc21,i,-16,-10,-10,-21,-8,-13,45
